Vaccinia inh = Vaccinia orthopox stage-specific inhibition; AID 1053133; Vaccinia-infected cells, mCherry/Venus stage reporter fluorescence; stronger effect = lower value; some inactives read as strong as hits; activity change (mCherry), % (test concentration not listed); 0.01% of 89,000 active;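 active = mCherry past -33% and 40 or more points under the early reporter, replicates agreeing; inconclusive = past -33% without that gap or agreement; tested in A549 cells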;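 also: scaled between vehicle wells and reference inhibitor wells; 23 nL library stock went into each well; one replicate is shown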
Vaccinia inh Venus = also measured in Vaccinia inh; calls as there; activity change (Venus), %; measured here: Venus reporter, other viral stage;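 negative = less Venus signal; first of two replicates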
* hit, by the source's call; ? = inconclusive; · = no result given; & = joins results of further samples. Only part of the results is shown; rates above refer to the full screens.

The line under a structure holds: Vaccinia inh, Vaccinia inh Venus
#1 Cc1ccc(S(=O)(=O)N2C[C@H](O)COC[C@@H]3O[C@@H](CC(=O)NCc4ccc(Cl)c(Cl)c4)CC[C@H]32)cc1
 : ?, ·
#2 C[C@@H]1CN([C@@H](C)CO)C(=O)c2cc(NC(=O)c3ccccc3)ccc2O[C@@H](C)CCCCO[C@@H]1CN(C)C(=O)CCC(F)(F)F
 : -3, -7
#3 CC(C)NC(=O)N(C)C[C@H]1OCc2cnnn2CCCC(=O)N([C@H](C)CO)C[C@@H]1C
 : -3&8, 15&12
#4 C[C@@H]1CN([C@H](C)CO)C(=O)c2cccc(NC(=O)CCCCCC(=O)Nc3ccccc3N)c2O[C@@H]1CN(C)S(=O)(=O)c1ccc(Cl)cc1
 : -9, -4
#5 C[C@H](CO)N1C[C@H](C)[C@H](CN(C)C(=O)Nc2ccc(C(F)(F)F)cc2)Oc2ccc(NS(=O)(=O)c3cccs3)cc2C1=O
 : 3, 0
#6 CCC(=O)N1C[C@H](C)[C@H](OC)CN(C)C(=O)c2cc(NC(=O)CC(F)(F)F)ccc2OC[C@H]1C
 : 13, 12
#7 CC(C)NC(=O)N(C)C[C@H]1Oc2ccc(NC(=O)C3CC3)cc2CC(=O)N([C@H](C)CO)C[C@H]1C
 : -3, 1
#8 CO[C@H]1CN(C)C(=O)c2cc(NC(=O)NC3CCCCC3)ccc2OC[C@@H](C)N(CC2CC2)C[C@@H]1C
 : -19, -15
#9 C[C@@H]1CCCCO[C@@H](CN(C)Cc2ccncc2)[C@H](C)CN([C@H](C)CO)C(=O)c2cc(NC(=O)Cc3ccccc3)ccc2O1
 : -2, -1
#10 COc1cccc(S(=O)(=O)N2CC3(CN(C(=O)Nc4cccc(F)c4)[C@H](CO)c4[nH]c5cc(OC)ccc5c43)C2)c1
 : ?, ·
#11 CCCNC(=O)Nc1ccc2c(c1)C(=O)N(C)C[C@H](OC)[C@@H](C)CN(C(=O)C1CC1)[C@@H](C)CO2
 : 2, 0
#12 C[C@@H]1CN([C@@H](C)CO)C(=O)c2cc(NC(=O)CCCCCC(=O)Nc3ccccc3N)ccc2O[C@@H]1CN(C)S(=O)(=O)c1cn(C)cn1
 : 42, 24
#13 CCCN1C[C@@H](C)[C@@H](OC)CN(C)C(=O)c2cc(NC(=O)C3CCOCC3)ccc2OC[C@H]1C
 : 9, 11
#14 Cc1noc(C)c1NC(=O)Nc1ccc2c(c1)C(=O)N(C)[C@@H]1CC[C@H](CC(=O)NCc3ccc(Cl)cc3)O[C@@H]1CO2
 : 10, -2
#15 Cc1cccc(S(=O)(=O)N2C[C@@H](O)COC[C@@H]3O[C@H](CC(=O)NCc4ccc5c(c4)OCO5)CC[C@H]32)c1
 : -24, -17
#16 C[C@@H]1CCCCO[C@@H](CN(C)C(=O)c2ccccc2)[C@H](C)CN([C@@H](C)CO)C(=O)c2cc(NC(=O)Nc3ccc(F)cc3)ccc2O1
 : 15, 6
#17 O=C(CC1CC1)N1CC(=O)N2[C@H](C1)[C@H](c1ccc(/C=C/c3ccccc3)cc1)[C@@H]2CO
 : ?, ·
#18 Cc1ccc(S(=O)(=O)N[C@@H]2C=C[C@@H](CC(=O)N3CCN(c4ccccc4)CC3)O[C@H]2CO)cc1
 : -17, -10
#19 COC(=O)[C@@H]1[C@@H](CO)[C@@H]2Cn3c(ccc(-c4ccc(F)cc4)c3=O)[C@@H]2N1C
 : 6, 7
#20 CC(C)NC(=O)N[C@H]1CC[C@@H](CCNS(=O)(=O)Cc2ccccc2)O[C@@H]1CO
 : 0, 1
#21 CNC[C@@H]1OCCCC[C@H](C)Oc2ccc(NC(=O)Nc3ccccc3)cc2C(=O)N([C@@H](C)CO)C[C@@H]1C
 : 7, 3
#22 CCNC[C@H]1[C@@H](c2ccccc2)[C@@H](CO)N1C(=O)Cc1ccccn1
 : 6, 2
#23 O=C(NCc1ccccc1)[C@@H]1N[C@@H]2c3ccc(-c4ccccc4)c(=O)n3C[C@@H]2[C@H]1CO
 : 4, 4
#24 O=C(C[C@@H]1C=C[C@@H](NC(=O)Nc2cc(F)ccc2F)[C@@H](CO)O1)NCc1ccncn1
 : 9, 0
#25 CCCNC(=O)C[C@@H]1CC[C@@H]2[C@H](COC[C@@H](O)CN2C(=O)c2ccc(F)cc2)O1
 : 23, 16
#26 C[C@@H]1CN([C@H](C)CO)C(=O)c2cc(NC(=O)CCCN(C)C)ccc2O[C@H]1CN(C)C(=O)NC1CCCCC1
 : 6, 10
#27 C[C@@H]1CN([C@@H](C)CO)C(=O)c2cc(-c3ccc(C(=O)N(C)C)cc3)cnc2O[C@@H]1CN(C)C(=O)CN(C)C
 : 34, 19
#28 CCC(=O)N1CC(=O)N2[C@H](CO)[C@@H](c3ccc(-c4ccc(C(=O)N(C)C)cc4)cc3)[C@H]2C1
 : 29, 13
#29 C[C@@H]1CN([C@@H](C)CO)C(=O)c2cc(NS(=O)(=O)c3cccs3)ccc2O[C@@H](C)CCCCO[C@H]1CN(C)C
 : 21, 5
#30 Cc1noc(C)c1S(=O)(=O)Nc1cccc2c1O[C@@H](CN(C)Cc1ccccc1)[C@@H](C)CN([C@H](C)CO)C2=O
 : 1, -3
#31 Cc1noc(C)c1S(=O)(=O)Nc1ccc2c(c1)CC(=O)N([C@@H](C)CO)C[C@@H](C)[C@H](CN(C)Cc1ccc3c(c1)OCO3)O2
 : 2, 5
#32 N#Cc1cccc(-c2ccc(C3[C@H]4CNC[C@@H]3N4S(=O)(=O)c3ccc(-c4ccccc4)cc3)cc2)c1 (stereo partly drawn)
 : 22, 18
#33 O=C(C[C@H]1CC[C@@H](NC(=O)c2ccncc2)[C@@H](CO)O1)Nc1ccccc1
 : 12, 10
#34 Cc1noc(C)c1NC(=O)Nc1cccc2c1O[C@@H](CN(C)S(=O)(=O)c1cn(C)cn1)[C@H](C)CN([C@@H](C)CO)C2=O
 : -2, 5
#35 CN(C)C(=O)c1ccc(-c2ccc([C@@H]3[C@@H](CO)N4CCCCN(CC5CC5)C[C@H]34)cc2)cc1
 : 19, 10
#36 COc1cccc(NC(=O)N(C)C[C@@H]2Oc3ncc(C#Cc4ccc(F)cc4)cc3C(=O)N([C@@H](C)CO)C[C@@H]2C)c1
 : ?, ·
#37 CN(C)C(=O)C[C@@H]1CC[C@H](NC(=O)NC2CCCC2)[C@H](CO)O1
 : -2, 13
#38 CCCN(C)C[C@@H]1Oc2ncc(-c3cccc(OC)c3)cc2C(=O)N([C@H](C)CO)C[C@@H]1C
 : 3, 10
#39 C/C=C/c1ccc([C@@H]2[C@H](CO)N(C(=O)c3cnccn3)C23CN(C(=O)CC)C3)cc1
 : 1, -2
#40 C[C@@H]1CN([C@@H](C)CO)C(=O)c2cc(NC(=O)C3CC3)ccc2O[C@@H]1CN(C)Cc1ccc(C(=O)Nc2ccccc2N)cc1
 : -9, -5
#41 CCCNC(=O)N1CC2(C1)CN(C(C)=O)[C@H](CO)c1c2c2ccc(OC)cc2n1C
 : -5, -7
#42 O=C1CN(Cc2ccccc2)C[C@@H]2[C@H](c3ccc(-c4ccccc4F)cc3)[C@H](CO)N12
 : 3, 0
#43 C/C=C/c1ccc([C@H]2[C@@H](CO)N(CCC)[C@@H]2CN(CC)C(=O)c2ccccn2)cc1
 : -2, 2
#44 CN1C(=O)c2cc(NS(C)(=O)=O)ccc2OC[C@H]2O[C@@H](CC(=O)N3CCOCC3)CC[C@H]21
 : 7, 15
#45 CO[C@@H]1CN(C)C(=O)c2ccc(NS(=O)(=O)c3cccc(C)c3)cc2OC[C@@H](C)N(C(=O)Cc2cccnc2)C[C@H]1C
 : 1, 2
#46 C[C@@H]1CN([C@@H](C)CO)S(=O)(=O)c2ccc(C#C[C@@H](C)O)cc2O[C@H]1CN(C)C(=O)C1CCC1
 : -1, -3
#47 CC=Cc1ccc2n(c1=O)C[C@@H]1[C@@H](CO)[C@H](C(=O)NC3CCC3)N(CCC)[C@H]21 (mixture of isomers)
 : -2, -2
#48 O=C(Cc1ccccc1)N1C[C@H]2[C@@H](c3ccccc31)[C@@H](CO)N2C(=O)c1cccc(F)c1
 : 5, -1
#49 O=C(C[C@@H]1C=C[C@@H](NC(=O)C2CCOCC2)[C@H](CO)O1)NCc1ccncc1
 : -1, -5
#50 CC(C)NC(=O)N(C)C[C@H]1Oc2c(NC(=O)c3nc4ccccc4s3)cccc2C(=O)N([C@@H](C)CO)C[C@H]1C
 : 5, -2
#51 COc1cccc(-c2cn(CC[C@@H]3CC[C@H](NC(=O)CC4CC4)[C@H](CO)O3)nn2)c1
 : 3, 11
#52 C[C@H](CO)N1C[C@H](C)[C@@H](CN(C)C(=O)Cc2ccccc2)OCCCC[C@H](C)Oc2ccc(NS(=O)(=O)c3ccccc3)cc2C1=O
 : -17, -25
#53 C[C@@H]1CN([C@@H](C)CO)C(=O)Cc2cc(NC(=O)Nc3ccc(C(F)(F)F)cc3)ccc2O[C@H]1CN(C)C(=O)NC1CCCCC1
 : ?, ·
#54 CN(C)CC(=O)Nc1ccc2c(c1)[C@H]1C[C@@H](CC(=O)NCc3ccc(Cl)cc3)O[C@H](CO)[C@H]1O2
 : -4, 0
#55 COc1ccccc1C(=O)N1C[C@@H]2[C@H](c3ccccc31)[C@@H](CO)N2C(=O)Nc1ccccc1
 : 19, 15
#56 C[C@@H]1CCCCO[C@H](CN(C)C(=O)Nc2ccccc2)[C@H](C)CN([C@H](C)CO)C(=O)c2cc(NC(=O)Nc3ccc(F)cc3)ccc2O1
 : 20, 19
#57 O=C(Nc1ccc(F)cc1)N1CC(=O)N2[C@@H](CO)[C@@H](c3ccc(-c4ccccc4)cc3)[C@@H]2C1
 : -32, -26
#58 CCCC#Cc1ccc2c(c1)O[C@H](CN(C)C)[C@@H](C)CN([C@H](C)CO)S2(=O)=O
 : ?, ·
#59 C[C@@H]1CN([C@H](C)CO)C(=O)c2cc(NC(=O)Nc3ccc(C(F)(F)F)cc3)ccc2O[C@@H]1CN(C)C(=O)Nc1ccc(F)cc1
 : -35, -21
#60 COc1ccc(S(=O)(=O)Nc2cccc3c2O[C@@H](CN(C)C(=O)NC2CCCCC2)[C@@H](C)CN([C@H](C)CO)C3=O)cc1
 : ?, ·

(further entries)
The line under a structure holds: Vaccinia inh, Vaccinia inh Venus
#61 C[C@@H]1CN([C@H](C)CO)C(=O)c2cccc(NS(=O)(=O)c3ccc(F)cc3)c2O[C@H]1CN(C)C(=O)Nc1cccc2ccccc12
 : 14, 13
#62 C[C@H]1CN([C@@H](C)CO)C(=O)c2cc(C#Cc3ccccc3F)cnc2O[C@@H]1CN(C)C(=O)c1ccc2c(c1)OCO2
 : ?, ·
#63 CC=Cc1ccc2n(c1=O)C[C@@H]1[C@@H](CO)[C@H](C(=O)NC3CCCC3)N(Cc3ccccc3)[C@H]21 (mixture of isomers)
 : -8, 2
#64 COc1ccc(-c2cnc3c(c2)C(=O)N([C@@H](C)CO)C[C@H](C)[C@@H](CN(C)C(=O)Cc2ccccc2)O3)cc1
 : -31, -37
#65 CN(C)CC(=O)Nc1ccc2c(c1)[C@@H]1C[C@@H](CC(=O)N3CCN(C)CC3)O[C@@H](CO)[C@@H]1O2
 : 9, 6
#66 C/C=C/c1ccc([C@@H]2[C@H](CO)N(C(=O)CC)C23CN(C(=O)c2ccccc2)C3)cc1
 : -8, -4
#67 C[C@@H]1CN([C@@H](C)CO)C(=O)c2cccc(NC(=O)Nc3ccc(C(F)(F)F)cc3)c2O[C@H]1CN(C)S(=O)(=O)c1ccc(F)cc1
 : -24, -23
#68 C[C@@H]1CN([C@@H](C)CO)S(=O)(=O)c2ccc(-c3ccc(F)cc3)cc2O[C@H]1CN(C)C(=O)C1CCOCC1
 : 0, 4
#69 C[C@@H]1CN([C@H](C)CO)C(=O)c2cc(NC(=O)CCC(F)(F)F)ccc2O[C@H]1CN(C)S(=O)(=O)c1ccccc1
 : 4, 3
#70 C[C@H](O)C#Cc1cnc2c(c1)C(=O)N([C@H](C)CO)C[C@@H](C)[C@H](CN(C)CC1CCOCC1)O2
 : 24, 9
#71 COc1ccccc1-c1ccccc1[C@@H]1[C@@H](C#N)N(C(=O)C2CCC2)[C@H]1CO
 : 12, 6
#72 C[C@H]1CN([C@@H](C)CO)C(=O)c2cccc(NC(=O)c3cnccn3)c2O[C@H]1CN(C)CC1CC1
 : 14, 15
#73 O=C(C[C@H]1C=C[C@H](NC(=O)c2ccccc2)[C@@H](CO)O1)NCc1ccncn1
 : -1, 5
#74 Cc1noc(C)c1NC(=O)Nc1ccc2c(c1)C(=O)N([C@H](C)CO)C[C@H](C)[C@H](CN(C)S(=O)(=O)c1ccccc1)OCCCC[C@@H](C)O2
 : 34, 14
#75 CCCNC(=O)N[C@@H]1CC[C@@H](CCn2cc(C3CC3)nn2)O[C@H]1CO
 : 8, 8
#76 Cc1noc(C)c1S(=O)(=O)Nc1ccc2c(c1)C(=O)N([C@H](C)CO)C[C@H](C)[C@H](CN(C)Cc1ccncc1)O2
 : 14, 16
#77 COc1ccccc1-c1ccccc1[C@@H]1[C@H](C#N)N(C(=O)CN(C)C)[C@H]1CO
 : 8, -1

Reprinted at random: 7 compounds from above, in no set order.
The line under a structure holds: Vaccinia inh, Vaccinia inh Venus
#65 CN(C)CC(=O)Nc1ccc2c(c1)[C@@H]1C[C@@H](CC(=O)N3CCN(C)CC3)O[C@@H](CO)[C@@H]1O2
 : 9, 6
#69 C[C@@H]1CN([C@H](C)CO)C(=O)c2cc(NC(=O)CCC(F)(F)F)ccc2O[C@H]1CN(C)S(=O)(=O)c1ccccc1
 : 4, 3
#77 COc1ccccc1-c1ccccc1[C@@H]1[C@H](C#N)N(C(=O)CN(C)C)[C@H]1CO
 : 8, -1
#75 CCCNC(=O)N[C@@H]1CC[C@@H](CCn2cc(C3CC3)nn2)O[C@H]1CO
 : 8, 8
#61 C[C@@H]1CN([C@H](C)CO)C(=O)c2cccc(NS(=O)(=O)c3ccc(F)cc3)c2O[C@H]1CN(C)C(=O)Nc1cccc2ccccc12
 : 14, 13
#66 C/C=C/c1ccc([C@@H]2[C@H](CO)N(C(=O)CC)C23CN(C(=O)c2ccccc2)C3)cc1
 : -8, -4
#63 CC=Cc1ccc2n(c1=O)C[C@@H]1[C@@H](CO)[C@H](C(=O)NC3CCCC3)N(Cc3ccccc3)[C@H]21 (mixture of isomers)
 : -8, 2

Screening results from PubChem BioAssay.
